PINK1 modulator – changes PINK1 expression; PINK1 immunofluorescence, high-content cytometry, 24 h; Potency, µM (doses to about 76.6 µM), without a hit: top-dose activation (PINK1 increase), usual class: activators; actives 0.2% (n = 410,000); AID 624263; active = well fitted activation curve with a large enough effect; inconclusive = small, poorly fitted or top-dose-only effect; inactive = flat fitted curve, though single readings scatter; cell line not stated here;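 note: % of control where 0% means no effect; nearly all actives have a fitted effect of over 65% in size; a mitochondrial uncoupler was the plate control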
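Decision-based qHTS: stable cells, 24 h exposure to five compound concentrations, CCCP as control. Fixed cells stained for PINK1 plus nuclear, mitochondrial and cell markers, cytometer read.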
ClpP mod – qHTS Assay for Activators of ClpP; purified B. subtilis ClpP, FRET peptide cleavage, 20 min; ATP-dependent Clp protease proteolytic subunit (Bacillus subtilis (strain 168)), P80244; actives 1.9% (n = 340,000); Potency, µM (highest dose often 57.5 µM), for the others: top-dose activity change, negative = active; active = well fitted falling curve with a large enough effect; inconclusive = small, poorly fitted or top-dose-only effect; inactive = no such curve, though single readings can be large or run the other way; note: the source files actives as falling curves though it sought activators and does not explain the sign; nearly all actives have a fitted effect of over 65% in size; many hits overshoot -100%
Target sequence (P80244 whole entry, looked up): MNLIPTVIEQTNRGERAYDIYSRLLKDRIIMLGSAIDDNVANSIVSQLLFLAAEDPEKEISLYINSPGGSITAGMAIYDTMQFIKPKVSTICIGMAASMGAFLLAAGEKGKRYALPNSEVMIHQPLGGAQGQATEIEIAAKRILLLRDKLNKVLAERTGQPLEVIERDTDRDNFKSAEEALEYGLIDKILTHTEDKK
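ClpP 10 microg/mL final, pH 8 Tris/KCl buffer with BSA, glycerol, Tween-20; compound pinned in; FRET-FV substrate; RT 20 min; Ex320/Em430; ΔFRET vs ADEP 5.8 microM, DMSO, no enzyme.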
Numbers without * were called inactive; ? = inconclusive. Potency is the fitted concentration of half-maximal effect.

| Structure | PINK1 modulator | ClpP mod |
| --- | --- | --- |
| COc1cccc(Cn2c(=O)n(CC3CCC(C(=O)NC(C)C)CC3)c(=O)c3sccc32)c1 (stereo not given) | -0.7% | -0.9% |
| COc1ccccc1C(=O)Nc1nc2nc(C)c(Cc3ccccc3)c(=O)n2[nH]1 | 1.4% | -2.8% |
| CCCc1nn2c(=O)cc(COC(=O)c3ccccc3NC(=O)c3ccc(Cl)cc3)nc2s1 | -0.4% | -5.0% |
| Cc1ccc(C(=O)N2CCc3cc(CNC(=O)c4ccnn4C)ccc32)cc1 | -0.2% | 1.6% |
| Cc1ccc(NC(=O)Cn2cc(S(=O)(=O)Cc3cccc(Cl)c3)c3ccccc32)cc1C | 8.4% | -5.3% |
| COc1ccc(C(=O)Nc2c(C(=O)c3ccccc3)oc3ccccc23)cc1 | 0.4% | -8.9% |
| COc1ccc(/C=C/C(=O)Nc2nc3n(n2)C(c2ccccc2)C=C(c2ccc(Cl)cc2)N3)cc1 (stereo not given) | 4.1% | -1.5% |
| Cc1cccc2c(=O)cc(CSc3ccccc3NC(=O)C(C)C)[nH]c12 | -0.2% | -0.2% |
| COc1ccc(Cl)cc1NC(=O)COC(=O)CC(C)(C)CC1=NS(=O)(=O)c2ccccc2N1 | 0.5% | -2.1% |
| Cc1ccc(-c2cc(NC(=O)COc3ccc(Cl)cc3C)on2)cc1 | 0.6% | -7.5% |
| COc1ccc(Br)cc1[C@@H]1Nc2ccc(C(=O)O)cc2[C@@H]2C=CC[C@@H]21 | 3.0% | -0.3% |
| Cc1cccc(OCC(=O)N(Cc2ccc(N(C)C)cc2)Cc2ccco2)c1C | 0.0% | -1.4% |
| COc1cccc(-c2nc3nc(C)cc(C)n3c2NCc2ccccc2)c1 | -0.3% | -3.3% |
| Cn1c(CN2CCOCC2)nc2cc(NC(=O)c3ccccc3[N+](=O)[O-])ccc21 | 3.6% | -7.2% |
| Cc1cccc(N2CCN(C(=O)c3cccc(-n4c(C)nc5cccnc54)c3)CC2)c1C | 1.3% | -1.6% |
| CCOc1ccc(NC(=O)N(Cc2cn(CC)c3ccccc23)C2CCCCCC2)cc1 | 2.8% | -7.4% |
| O=C(NCCCN1CCOCC1)c1ccc2c(c1)N(Cc1cccc(Cl)c1)C(=O)c1ccccc1S2 | 2.8% | 1.1% |
| COc1ccc(OCCn2cc(C(=O)c3ccco3)c3ccccc32)cc1 | 3.0% | ? |
| COc1cc(Cl)c(C)cc1NC(=O)Cn1cnc2sc(C)c(S(=O)(=O)N3CCCCC3)c2c1=O | -0.5% | -0.1% |
| O=C(Nc1ccc(C(F)(F)F)cc1)c1cc(S(=O)(=O)NC2CCCCC2)ccc1F | 30% | 0.3% |
| COCCn1c(CNC(=O)c2ccccc2C)nc2cccnc21 | -0.5% | -21% |
| CCOc1ccc(S(=O)(=O)NCC(c2ccco2)S(=O)(=O)c2ccc(F)cc2)cc1 (stereo not given) | -0.8% | 0.2% |
| COc1ccc(-c2nc(-c3ccccc3)c(-c3ccc(O)cc3)[nH]2)cc1 | 0.9% | 5µM* |
| CCc1nnc(NC(=O)[C@@H]2CCCN2C(=O)c2cccs2)s1 | 0.8% | -0.1% |
| CC(C)c1ccc(Nc2c(-c3ccco3)nc3ccccn23)cc1 | 0.0% | 4.1% |
| CCOC(=O)CSc1nc2c(sc3ccccc32)c(=O)n1CCO | -1.4% | -3.2% |
| CCCN1CNc2c(c(=O)[nH]c(=S)n2CCc2ccc(Cl)cc2Cl)C1 | 0.7% | -3.2% |
| COc1ccccc1-n1ncc2c(=O)[nH]c(SCC(=O)Nc3ccc(Cl)cc3)nc21 | -0.4% | 0.0% |
| O=C(Nc1c(-c2ccc(F)cc2)nc2ccccn12)c1cccc(F)c1 | 1.2% | -0.9% |
| COc1ccc(C(CNC(=O)c2oc3ccccc3c2C)N2CCCCC2)cc1 (stereo not given) | -1.8% | -0.9% |

By substructure, those above with an aryl thioether with sulfur outside any ring.
| Structure | PINK1 modulator | ClpP mod |
| --- | --- | --- |
| Cc1cccc2c(=O)cc(CSc3ccccc3NC(=O)C(C)C)[nH]c12 | -0.2% | -0.2% |
| CCOC(=O)CSc1nc2c(sc3ccccc32)c(=O)n1CCO | -1.4% | -3.2% |
| COc1ccccc1-n1ncc2c(=O)[nH]c(SCC(=O)Nc3ccc(Cl)cc3)nc21 | -0.4% | 0.0% |

(listing goes on)
| Structure | PINK1 modulator | ClpP mod |
| --- | --- | --- |
| O=C(COc1ccccc1Cl)Nc1ccccc1OCc1cc(=O)n2ccccc2n1 | 7.6% | ? |
| Cc1cc(=O)n2nc(N(C)CC(=O)NCc3ccc(Cl)cc3)sc2n1 | 2.4% | -2.5% |
| COc1ccc2c(c1)sc1ncc(C(=O)NCc3ccc(Cl)cc3)c(=O)n12 | 0.3% | -12% |
| Cc1ccn2c(Nc3ccc4c(c3)OCCO4)c(-c3cccs3)nc2c1 | -1.1% | 4.1% |
| CC(C)(C)CC(=O)Nc1nnc2n1CCS2 | -1.9% | -0.4% |
| CCOC(=O)c1cc(-c2ccc(C)cc2)n(CCCC(=O)Nc2cc(C)ccc2C)c1 | 14% | 6.5% |
| CCOc1ccc(C2CC(=O)Nc3c2c(=O)nc(SCc2ccccc2C)n3C)cc1OC (stereo not given) | 1.0% | -7.5% |
| Cc1cccc(C(=O)NCCc2sc(-c3ccccc3)nc2C)c1 | -0.8% | 3.8% |
| CCOC(=O)c1cccc(NC(=O)c2nn(-c3ccc(OC)cc3)c(=O)c3c2c2ccccc2n3C)c1 | 1.0% | -5.6% |
| CCc1cnc2c(c1SCc1cc(OC)cc(OC)c1)c(=O)n(C)c(=O)n2C | 1.4% | 1.5% |
| CC(C)c1ccc(S(=O)(=O)c2nnn3c2nc(N2CCN(C)CC2)c2sccc23)cc1 | 0.6% | -17% |
| O=C(NCc1cccc(Cl)c1)C1CCCN(c2nn3cc(-c4ccc(F)cc4)nc3s2)C1 (stereo not given) | 1.8% | -1.4% |
| Cc1ccccc1NC(=O)CSc1cn(CC(=O)N2CCCC2)c2ccccc12 | 0.0% | 0.5% |
| Cc1ccc(N2C(=O)CSC23C(=O)N(CC(=O)NCCc2ccccc2)c2ccccc23)cc1 (stereo not given) | -5.3% | -1.9% |
| Cc1ccc2[nH]c3c(=O)n(CC(=O)N4CCCC(C)C4)ncc3c2c1 (stereo not given) | 2.3% | -7.3% |
| CCC1CCc2nc3sc(C(=O)Nc4ccc(F)c(F)c4)c(N)c3cc2C1 (stereo not given) | 3.3% | 18% |
| COc1ccc2c(c1)c1c(c(=O)n(-c3cccc(C)c3)c(=O)n1Cc1cccc(Cl)c1)n2C | 3.1% | 3.8% |
| COc1cc(C)cc2oc(=O)c(CC(=O)NCCc3ccc(Cl)cc3)c(C)c12 | -0.3% | 2.6% |
| COCCNc1ncnc2c1c(-c1ccccc1)cn2-c1ccc(C)c(Cl)c1 | 2.4% | -8.2% |
| Cc1cc2oc(C(=O)N(Cc3ccccc3)C3CCS(=O)(=O)C3)cc(=O)c2cc1C (stereo not given) | 0.4% | 0.1% |
| CCCCNC(=O)C1CCN(S(=O)(=O)c2ccc3c(ccn3CC)c2)CC1 | 17% | 0.1% |
| Cc1cc(N2CCCCC2)nc2ccc(NC(=O)c3cccc(Cl)c3)cc12 | 7.6% | -5.2% |
| CCCNC(=O)C1CCC(Cn2c(=O)c3sccc3n(Cc3ccccc3F)c2=O)CC1 (stereo not given) | -0.5% | -0.9% |
| CCc1ccccc1Nc1nc2ccccc2c2nncn12 | -0.1% | -0.8% |
| Cc1ccccc1CNC(=O)C(C)N(c1ccccc1)S(C)(=O)=O (stereo not given) | -0.1% | -0.9% |
| Cc1c2cnn(CC(=O)NCC(C)c3ccccc3)c(=O)c2c(C)n1Cc1cccc(Cl)c1 (stereo not given) | -0.5% | -19% |
| Cc1ccc(-c2nc(-c3cc4cccc(OCc5ccc(F)cc5)c4oc3=O)no2)cc1 | -0.2% | -1.2% |
| Cc1cccc(C(=O)n2nc(-c3ccco3)nc2NCc2ccccc2)c1 | 4.1% | 0.6% |
| COc1ccc(-c2nc3c4ccccc4n(CC(=O)Nc4cc(F)ccc4F)c(=O)n3n2)cc1 | 7.5% | -12% |
| Cc1ccc(N2CC(c3nnc(Cc4ccc(Cl)cc4)o3)CC2=O)cc1 (stereo not given) | -1.0% | -2.0% |
| Cc1nnc2c3ccccc3nc(N3CCN(c4ccccc4)CC3)n12 | 0.1% | 0.9% |
| CCOC(=O)c1ccc(NS(=O)(=O)c2ccc3c(c2)OCCO3)cc1 | -0.4% | -1.2% |
| CCOc1ccc(-n2cc(-c3ccccc3)c3c(N4CCC(C)CC4)ncnc32)cc1 | 0.9% | ? |
| Cc1ccc(Cn2c(CNS(=O)(=O)c3ccc(C(C)(C)C)cc3)nc3cccnc32)cc1 | 3.4% | -5.3% |
| O=C(NCCc1nc2ccccc2n1Cc1ccc(Cl)cc1)c1ccccc1 | 3.9% | -2.2% |
| COc1ccc(-c2nc3ccccc3n3c(-c4cccc(C)c4)c4c(=O)n(C)c(=O)n(C)c4c23)cc1 | 3.1% | -2.5% |
| COc1cc(-c2cc3n(C)c(C)c(CCC(=O)NC4CCCCC4)c(=O)n3n2)cc(OC)c1OC | 0.8% | -17% |
| O=C1NC[C@@H](CCCCN2CCN(CCc3ccc(O)cc3)C(=O)C2=O)N(CC2CCCCC2)C1=O | -1.4% | 0.3% |
| Cc1cccc(N2CCN(S(=O)(=O)c3cc(C(=O)Nc4ccc(Oc5ccccc5)cc4)ccc3F)CC2)c1C | -0.8% | -0.5% |
| COc1cc(OC)cc(C(=O)NCc2ccc3c(c2)CCN3C(=O)c2ccccc2)c1 | 1.8% | -7.7% |
| CC(C)C(=O)NC(c1ccc(N(C)C)cc1)c1ccc2cccnc2c1O (stereo not given) | -0.4% | 1.3% |
| COc1ccc(NC(=O)CSc2nccn2C2CCCC2)cc1OC | 0.2% | 1.3% |
| COc1ccc(NS(=O)(=O)c2ccc(NS(=O)(=O)c3ccc4c(c3)OCCO4)cc2)cc1 | -1.0% | -0.4% |
| COc1ccc(N2CCN(C(=O)Cc3coc4ccc(C)cc34)CC2)cc1 | 0.6% | -6.1% |
| CCCN1CNc2c(c(=O)[nH]c(=S)n2CCCc2ccccc2)C1 | 0.2% | -3.7% |
| CCCOc1ccc(C2C(=O)N(C3CCC(C)CC3)CC(=O)N2CCC2=CCCCC2)cc1OC (stereo not given) | 1.7% | -0.1% |
| CCC(=O)N1c2ccccc2CC1C(=O)NCc1ccccc1C (stereo not given) | 0.3% | -5.1% |
| COc1ccc(CNC(=O)CN2C(=O)CSc3ccc(S(=O)(=O)N(C)C)cc32)cc1 | 0.6% | 0.3% |
| CC(=O)N1CCN(c2csc3ccc(F)cc3c2=O)CC1 | -0.3% | -20% |
| COc1cccc(C(=O)Nc2c3c(nn2-c2ccc(C)cc2C)CS(=O)(=O)C3)c1OC | -4.3% | -3.1% |
| COc1ccc(CCNC(=O)c2cc(Nc3ccccc3)nc3ccccc23)cc1OC | 1.0% | -7.9% |
| CCc1c(C)sc2c1CCN(C(=O)Nc1ccccc1Cl)C2c1ccc(OC)cc1 (stereo not given) | 0.4% | -0.3% |
| CSc1cccc(NC(=O)C2CCN(S(=O)(=O)c3ccc4[nH]c(=O)ccc4c3)CC2)c1 | 3.0% | -21% |
| COc1cc(OC)c(NC(=O)c2cc(C)nc3c2c(C)nn3-c2ccc(C)cc2)cc1Cl | 1.5% | -13% |
| Cc1ncc(CO)c2c1Oc1nc(-c3ccccc3Cl)nc(SCc3ccccc3F)c1C2 | 2.2% | 0.2% |
| COc1ccc(NC(=O)C(NC(=O)Cc2cccs2)c2ccc(OC)cc2)cc1 (stereo not given) | 1.0% | 0.9% |
| O=c1[nH][nH]c2c1[C@H](CCc1cccc(Cl)c1)O[C@H](CCc1ccccc1)C2 | 1.7% | 1.0% |
| Cc1nc2ccn(Cc3ccco3)c(=O)c2cc1C(=O)N1CCN(c2ccccc2)CC1 | 0.8% | -13% |
| COc1cc(-c2cc(OC)c3c(C)oc(C)c3c(=O)c2)ccc1OC(=O)c1ccccc1Cl | 3.1% | 1.2% |
| Cc1ccc(OCc2ccc(-c3nc(C#N)c(NCc4cccnc4)o3)o2)cc1 | 0.2% | 35µM* |

Continued:
| Structure | PINK1 modulator | ClpP mod |
| --- | --- | --- |
| COc1cccc(CN2C(=O)c3ccccc3C2C(=O)NCCc2ccc(OC)c(OC)c2)c1 (stereo not given) | 0.5% | -0.1% |
| CCCCC1CCC(C(=O)N2CC(=O)Nc3ccc(Br)cc3C2c2ccc(F)cc2)CC1 (stereo not given) | 4.9% | -1.8% |
| Cc1ccc(NC(=O)NCCc2c(C)nn(C)c2C)cc1Cl | -0.3% | -2.4% |
| CC(C)c1ccc(NC(=O)c2ccc(F)c(S(=O)(=O)N3CCN(c4ccccc4F)CC3)c2)cc1 | 0.5% | -2.2% |
| CCCCc1c(-c2ccccc2OC)ncn1CCc1cccc(F)c1 | ? | -5.6% |
| CCc1ccc(C2CC(=O)Oc3c2c(=O)n(C)c2ccccc32)cc1 (stereo not given) | -0.7% | -13% |
| COc1ccc(Cl)cc1NC(=O)CSc1nc(-c2ccccc2)c2ccccc2n1 | 0.3% | -6.2% |

Source: PubChem

The list is partial (hit frequency here may not be typical).
